# Source: PubChem
# Hsc70 = small molecules displacing fluorescent ligand from Hsc70 – biochemical, fluorescence polarization, primary screen (AID 568); Hsc70 fluorescence polarization, probe displacement; higher % means a stronger effect; strong numbers were not always called active; one-dose displacement, % at 20 µM; IC50 in µM for titrated hits; 83,000 tested, under 10 active;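 active = displacement above 50% without optical interference and an IC50 on retest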;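 also: ATPase domain with a fluorescein-tagged ATP probe; 0% = vehicle and 100% = excess ADP; read after one hour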
# MT1-MMP reporter = MT1-MMP gene expression reporter suppression – cell-based, luciferase reporter, luminescence (AID 618); calls from a first round at 10 µM; hits with a dose series show EC50 in µM; 87,000 tested, 0.62% active; MT1-MMP promoter luciferase reporter cells, luminescence;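 active = over half of the reporter light lost at 10 µM or EC50 under 50 µM; inactive = the rest and hits that failed the dose series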;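 also: actives suppress MT1-MMP promoter-driven transcription so potencies describe inhibitors; HT1080 fibrosarcoma cells; overnight exposure; toxic or luciferase-blocking compounds were not removed from the actives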
# WNV NS2B-NS3 inh = blocks West Nile virus NS2B-NS3 protease activity | P06935 | WNV NS2B-NS3 protease, fluorogenic substrate Ex360/Em465; active compounds read low | z-score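 (tested at a level between 10 and 100 µM)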 | 65,000 tested, 0.18% active | AID 577;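 active = z-score at -3 or under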;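 also: score is relative to mean and spread of the compound wells of a plate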
# Target sequence (P06935 1371-1501 limits assumed): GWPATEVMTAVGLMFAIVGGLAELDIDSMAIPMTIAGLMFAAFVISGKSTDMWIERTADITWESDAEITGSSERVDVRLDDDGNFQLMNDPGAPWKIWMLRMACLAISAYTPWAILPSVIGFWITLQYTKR
# Target sequence (P06935 1502-1679 limits assumed): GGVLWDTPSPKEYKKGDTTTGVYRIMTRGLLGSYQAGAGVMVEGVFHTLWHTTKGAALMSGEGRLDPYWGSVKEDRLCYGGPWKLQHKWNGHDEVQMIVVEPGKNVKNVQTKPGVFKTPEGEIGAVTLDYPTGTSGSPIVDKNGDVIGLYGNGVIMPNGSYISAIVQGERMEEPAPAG
# * hit, by the source's call; i = inactive; x = not tested or not shown.
mol	WNV NS2B-NS3 inh	MT1-MMP reporter	Hsc70
CCOc1ccccc1-n1c(SCC(=O)Nc2ccc(CC)cc2)nc2n[nH]c(C)c2c1=N	-0.83	i	2.6%
CCOC(=O)c1c(C)[nH]c(C)c1C(=O)CSc1nc(N)cc(=O)[nH]1	x	i	-4.3%
COc1ccccc1N1CCN(c2ccc(-c3ccccc3)nn2)CC1	-0.18	i	-6.2%
COc1ccccc1CN(Cc1nc2ccccc2c(=O)[nH]1)C(=O)Nc1ccc(C)cc1	x	i	-2.5%
CS/C(=N\S(=O)(=O)c1cccs1)NC(=O)CSc1nc2ccccc2s1	-1.4	i	-10%
Cc1c(NC(=O)c2c(F)cccc2F)c(=O)n(-c2ccccc2)n1C	0.36	i	0.9%
CN1C(=O)C2(OCC(COc3ccc(Cl)cc3)O2)c2ccccc21 (stereo unspecified)	0.08	i	-4.8%
O=S(=O)(NCc1ccco1)N1CCCCCC1	0.45	i	9.2%
Cc1cc(NC(c2cccnc2)c2ccc3cccnc3c2O)no1 (stereo unspecified)	2.9	i	4.8%
O=C(CCCCCN1C(=O)c2ccccc2C1=O)Nc1ccc2c(c1)OCCO2	x	i	-1.5%
Cc1nn(-c2ccccc2)c2sc(C(=O)N3CCCCC3)cc12	0.14	i	-1.8%
Cc1ccc2[nH]c(=O)c(CN(C)C(=O)c3ccccn3)cc2c1	0.71	i	-0.9%
CCC(C)(C)NC(=O)CN(C(=O)c1snc(C(N)=O)c1N)c1ccc2c(c1)OCO2	0.66	i	-0.2%
O=C(NCc1ccc(F)cc1)c1noc2c1CCCC2	0.54	i	3.8%
Cc1ccc(S(=O)(=O)CCc2nc3ccccc3n2CCC#N)cc1	-1.5	i	1.2%
O=C(NCCc1ccccn1)C1CC(=O)N(Cc2ccccc2Cl)C1 (stereo unspecified)	-0.86	i	-6.4%
CC1CCCN(C(=O)CSc2nnc(-c3ccc(S(=O)(=O)N4CCOCC4)cc3)n2C)C1 (stereo unspecified)	1.3	i	-9.5%
CCOc1ccc(-c2cc(C(=O)N3CCN(C)CC3)c3ccccc3n2)cc1	-1.4	i	5.9%
COc1ccc(Br)cc1CN1CCCCCCC1	x	i	2.3%
COCc1cc(=O)[nH]c(Nc2nc(C)c3ccc(C)cc3n2)n1	1.4	i	4.6%
O=C(CCN1CCN(c2ccccc2)CC1)Nc1nccs1	-0.84	i	-1.3%
CCOC(=O)c1c(C)nc2sccn12	2.3	i	-3.2%
Cc1cc(NC(=O)c2ccc(Cl)cc2)no1	0.31	i	-4.0%
CCc1ccc(NC(=O)CS(=O)CC(=O)NC(C)CCc2ccco2)cc1 (stereo unspecified)	0.04	i	4.9%
Cn1c(=O)[nH]c(=O)c2c1nc(N1CCNCC1)n2CCOc1ccccc1	0.98	i	6.0%
COc1ccc(N2C(=O)CC(N3CCN(c4ccc(S(=O)(=O)N5CCCC5)cc4)CC3)C2=O)cc1 (stereo unspecified)	-0.33	i	1.4%
CCOC(=O)c1c(-c2ccc(C)cc2C)csc1NC(=O)CSc1nnnn1C	-1.3	i	0.5%
COc1cc(NC(=O)c2ccc3c(=O)n(Cc4ccco4)c(=S)[nH]c3c2)cc(OC)c1OC	0.12	i	2.8%
CC1CC1C(=O)OCC(=O)NC(=O)NCc1ccco1 (stereo unspecified)	x	i	0.3%
O=C(CN(Cc1ccc2c(c1)OCO2)C(=O)CSc1nc2ccccc2o1)NC1CCCCC1	1.2	i	0.0%
CCSc1nc(-c2ccco2)ccc1C#N	1.1	i	-2.6%
COC(=O)Nc1ccc(C)c2nsnc12	-0.87	i	2.7%
FC(F)C(F)(F)C1=CC(c2ccccc2)=NCCN1	-0.41	i	-2.4%
Cc1nc(/C=[N+](\[O-])C(C)(C)/C=N/O)n(O)c1C	0.01	i	1.4%
COc1ccc(C(=O)c2ccc(N(C)C)cc2)c2ccccc12	x	i	0.8%
COC(=O)c1cc(C(=O)OC)cc(-n2c(C)cc(C(=O)CC#N)c2C)c1	0.88	i	-11%
O=c1cc(-c2ccccc2)nc2nc(SCc3ccccc3)[nH]n12	1.1	i	-5.8%
Cc1cc2nc(SCCN3CCCC3)[nH]c2cc1C	-0.69	i	0.4%
Cc1occc1C(=O)Nc1cccc(C(F)(F)F)c1	x	i	1.5%
O=C(c1ccc2snnc2c1)N1CCN(c2ccccc2)CC1	x	i	6.0%
COC(=O)Nc1ncc(CN2CCCCC2)s1	x	i	-5.3%
O=C1NCCN1C(=O)C12CC3CC(CC(C3)C1)C2	1.1	i	8.8%
O=C1CC(N2CCOCC2)C(=O)N1c1ccccc1Cl (stereo unspecified)	0.14	i	1.5%
CCOC(=O)C1=C(C)NC(SC)=NC1c1ccc(OC)cc1 (stereo unspecified)	x	i	-8.1%
CCC(=O)N=c1sc2c(OC)ccc(OC)c2n1C	-0.16	i	-1.5%
CCOC(=O)c1ccc(NC(=O)C2C3C=CC(C3)C2C(=O)O)cc1 (stereo unspecified)	-0.11	i	11%
O=C(CSc1nc2ccccc2c(=O)[nH]1)c1ccc(O)c(O)c1	-0.83	i	-4.0%
CCn1c(SCC#N)nc2c(c1=O)C1(CCCC1)Cc1ccccc1-2	1.9	i	0.0%
Cc1noc(C)c1COC(=O)CCCc1nc2ccccc2s1	0.8	i	0.6%
CC(=O)N[C@@H](CS)C(=O)O	0.49	i	2.0%
Cc1ccc(C)c(N2CCN(C(=O)COc3cc(=O)n(C)c4ccccc34)CC2)c1	-0.95	i	-0.9%
O=C(CS(=O)(=O)Cc1ccccc1)N1CCc2ccccc2C1	-0.34	i	-2.0%
CC(=O)NC1C(=O)N(CCc2ccccc2)c2ccccc21 (stereo unspecified)	1.7	i	-3.6%
CC(C)CNS(=O)(=O)c1ccc(C(=O)Nc2ccc3c(c2)OCCO3)cc1	0.58	i	2.6%
O=C(CNc1ccc(Oc2ccccc2)cc1)N1CCOCC1	0.24	i	-0.7%
COCCOC(=O)c1c(C)oc2ccc(OCc3cc(C(=O)OC)oc3C)cc12	-0.98	i	1.0%

# Remaining list, next part:
mol	WNV NS2B-NS3 inh	MT1-MMP reporter	Hsc70
COc1cc(-c2nc3ccccn3c2NCC2CCCO2)ccc1O (stereo unspecified)	0.57	i	-4.2%
COC(=O)CSC1=C(C#N)C(=O)NC2(CCCCC2)S1	0.73	i	0.8%
c1ccc2c(c1)nc(-c1ccncc1)n1nnnc21	1.3	i	-4.6%
c1ccc(-c2cc(N3CCCCCC3)n[nH]2)cc1	-0.56	i	-4.2%
Cc1c2c(nc3c(C)cccc13)OC(C)C2 (stereo unspecified)	-0.37	i	1.3%
CC(C)c1ccc(NC(=O)CN(Cc2ccccc2)S(C)(=O)=O)cc1	x	i	1.3%
COC(=O)C(CC(=O)c1ccc(Br)cc1)n1ccnc1 (stereo unspecified)	-0.37	i	-4.3%
COc1ccc(-c2ccc(-c3nnc(-c4ccncc4)o3)cc2)cc1	-0.85	i	4.2%

# A draw from above in order of length of the SMILES, lowest first.
mol	WNV NS2B-NS3 inh	MT1-MMP reporter	Hsc70
c1ccc2c(c1)nc(-c1ccncc1)n1nnnc21	1.3	i	-4.6%
CC1CC1C(=O)OCC(=O)NC(=O)NCc1ccco1 (stereo unspecified)	x	i	0.3%
O=C(CNc1ccc(Oc2ccccc2)cc1)N1CCOCC1	0.24	i	-0.7%
CCOC(=O)c1c(-c2ccc(C)cc2C)csc1NC(=O)CSc1nnnn1C	-1.3	i	0.5%

# Next entries.
mol	WNV NS2B-NS3 inh	MT1-MMP reporter	Hsc70
O=C(Nc1cccnc1)Nc1ccc(F)c(Cl)c1	1.4	i	3.0%
C=CCOc1nc(-c2ccncc2)nc2ccccc12	-0.39	i	1.6%
COc1ccc(N(C(=O)c2ccc(F)cc2)C2=CC3CCC(C2)N3C)cc1 (stereo unspecified)	x	i	2.6%
Cc1ccc(-n2nc(C)c3c(-c4cccs4)c(C#N)c(N)nc32)cc1	0.52	i	-8.9%
O=C(CN1C(=O)COc2ccccc21)c1cccc(Cl)c1	0.97	i	5.1%
Cn1nnnc1SCC(=O)c1ccco1	-1.3	i	5.0%
COc1ccc(C=NCCCN2CCOCC2)cc1	0.3	i	-15%
CC(NC(=O)c1ccccc1Cl)C1COc2ccccc2O1 (stereo unspecified)	0.2	i	-4.1%
COc1ccc(C2Nc3ccccc3C(=O)N2Cc2ccco2)cc1COc1ccccc1F (stereo unspecified)	x	i	3.6%
CN(c1ccc(C(=O)Nc2cccnc2)cc1)S(C)(=O)=O	-0.78	i	-1.0%
Cc1cc(C)n(-c2nc3ccccc3nc2N2CCCC2)n1	x	i	-0.7%
O=C1C(=O)N(CCCn2ccnc2)C(c2cccnc2)/C1=C(/O)c1ccc(F)cc1 (stereo unspecified)	-0.66	i	-2.4%
Cc1ccc(NC(=O)CCNS(=O)(=O)c2cccc3nsnc23)cc1	x	i	4.3%
OC1CCCCC1Sc1nc2ccccc2s1 (stereo unspecified)	0.82	i	-3.4%
COc1ccc(/C=N/Nc2nonc2N)cc1	x	i	9.2%
Cc1cc(C(F)(F)F)c2sc(N)nc2n1	-0.9	i	-3.8%

# 3 entries from above, as labelled records:
CCOC(=O)C1=C(C)NC(SC)=NC1c1ccc(OC)cc1 (stereo unspecified)
  WNV NS2B-NS3 inh: x
  MT1-MMP reporter: i
  Hsc70: -8.1%
CCC(=O)N=c1sc2c(OC)ccc(OC)c2n1C
  WNV NS2B-NS3 inh: -0.16
  MT1-MMP reporter: i
  Hsc70: -1.5%
CCOC(=O)c1ccc(NC(=O)C2C3C=CC(C3)C2C(=O)O)cc1 (stereo unspecified)
  WNV NS2B-NS3 inh: -0.11
  MT1-MMP reporter: i
  Hsc70: 11%

# Later entries
mol	WNV NS2B-NS3 inh	MT1-MMP reporter	Hsc70
COc1ccc(Cc2nnc(SCC(=O)Nc3ncc(C)s3)o2)cc1	-0.94	i	1.1%
CCC(C)(C)n1nnnc1C(c1cccc(C#N)c1)N1CCN(c2cccc(C)c2C)CC1 (stereo unspecified)	0.35	i	-0.1%
Cc1ccc(Nc2cc(C)nc3nc(C)nn23)cc1	0.17	i	2.1%
COc1ccccc1CNC(=O)CCn1c(=O)[nH]c2ccsc2c1=O	0.4	i	-1.1%
O=c1c2ccccc2nnn1CSc1nc2sc3c(c2c(=O)n1CC1CCCO1)CCC3 (stereo unspecified)	-1.1	i	-2.0%
CCOC(=O)Nc1nnc(-c2ccc(OC)c(OC)c2)s1	-0.6	i	4.4%
Cc1cc(C(F)(F)F)c2c(=O)[nH]c(=O)n(Cc3ccccc3)c2n1	0.47	i	-3.3%
O=C(c1cc(-c2cccs2)on1)N1CCOCC1	0.04	i	-5.7%
Cc1onc(-c2ccccc2)c1C(=O)Nc1nnc(COc2ccc(Cl)cc2)s1	0.14	i	-0.9%
O=C(O)C(Cc1ccccc1)n1cccc1 (stereo unspecified)	-0.93	i	-1.0%
O=S(=O)(NCc1ccccc1Cl)c1cnc[nH]1	0.98	i	3.9%
CCOc1cc(C(c2c(C)[nH][nH]c2=O)c2c(C)[nH][nH]c2=O)ccc1OCc1ccc([N+](=O)[O-])cc1	x	i	0.7%
COC(=O)C1C(=O)C2=C(CC1C)NC(C)=C(C(=O)OCCOc1ccccc1)C2c1ccc(C)o1 (stereo unspecified)	x	i	-1.6%
CCCCN(CCCC)S(=O)(=O)c1ccc2[nH]c(=O)[nH]c2c1	x	i	-3.7%
COC(=O)C1=C(CN2CCSCC2)NC(=O)NC1c1cc(C)ccc1C (stereo unspecified)	2.4	i	0.7%
CCNS(=O)(=O)c1ccc(NC(=O)Nc2cccc(C(F)(F)F)c2)cc1	-0.49	i	-0.3%
O=C(NCC(=O)N(c1cccnc1)C(C(=O)NCc1ccco1)c1ccccc1)c1ccco1 (stereo unspecified)	-0.95	i	-2.9%
O=C(Nc1ccccc1N1CCCC1)c1cc2ccccc2o1	-0.08	i	-10%
CCOCCCNC(=O)C(NC(=O)CNC(=O)c1ccccc1)c1ccccc1 (stereo unspecified)	x	i	-0.2%
O=C(C(NS(=O)(=O)c1cccs1)c1ccccc1)N1CCN(c2ccccc2)CC1 (stereo unspecified)	0.99	i	11%
COc1ccc(S(=O)(=O)Cc2ccc(C(=O)NCc3cccs3)o2)cc1	0.25	i	0.9%
Cc1ccccc1-n1nc(C)c2cc(C(=O)N3CCN(S(=O)(=O)c4ccc(F)cc4)CC3)sc21	-0.33	i	-4.7%
CCOC(=O)N1CCC(N2CC34C=CC(O3)C(C(=O)Nc3ccc(C)cc3)C4C2=O)CC1 (stereo unspecified)	-1.3	i	5.8%
COc1ccc(-c2nnc(-c3cc4ccccc4oc3=O)o2)cc1	x	i	1.3%
O=C(O)CCCCCNc1nc(=S)[nH]c2ccccc12	-0.13	i	0.9%
Cc1cc2c(=O)n(CC(=O)N3CCN(c4ccccc4)CC3)cnc2s1	-0.44	i	1.9%
CCn1cc(C(=O)NC2CC3CCC2C3)c(=O)c2ccc(C)nc21 (stereo unspecified)	-1.3	i	-2.1%
Cc1ccnc(-n2c(CCN3C(=O)c4ccccc4C3=O)nc3ccccc3c2=O)c1	0.23	i	0.6%
CC(C)(C)C(=O)NCCN1CCN(C(=O)C(C)(C)C)CC1	x	i	1.1%
CC(C)n1c(NCc2cc(Cl)ccc2O)nc2ccccc21	0.12	i	2.4%

# This is a subset, so the mix of outcomes need not match the whole.
